eIF4H FP inh: inhibitors of RNA binding by human eIF4H. Q15056. AID 2012. 290,000 tested, 0.94% active. eIF4H fluorescence polarization binding assay. inhibition, % at 35 µM;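 active = 50% or more with normal probe brightness, or confirmed in later tests; inconclusive = above 50% with abnormal brightness, or retests that disagree; inactive = below 50% or failed in later tests; about a fifth of its hits are not listed in these tables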;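 note: calls also rest on retests at 20 µM and on dose response follow-up; 0% = protein and probe with vehicle and 100% = probe without protein; strong numbers were not always called active; many hits fall short of the cut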
PABP polyA inh: PABP-poly(A) binding inhibition; 290,000 tested, 1% active; inhibition, % at 35 µM; PABP-poly(A) RNA binding, fluorescence polarization; P11940;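 active = 50% or more with normal probe brightness, or confirmed in later tests; inconclusive = above 50% with abnormal brightness, or retests that disagree; inactive = below 50% or failed in later tests; about a fifth of its hits are not listed in these tables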;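 note: calls also rest on retests at 20 µM and on dose response follow-up; controls were probe without protein and protein plus probe with vehicle; some compounds called inactive have numbers as strong as hits; many hits fall short of the cut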
Target sequence (P11940 whole entry, looked up): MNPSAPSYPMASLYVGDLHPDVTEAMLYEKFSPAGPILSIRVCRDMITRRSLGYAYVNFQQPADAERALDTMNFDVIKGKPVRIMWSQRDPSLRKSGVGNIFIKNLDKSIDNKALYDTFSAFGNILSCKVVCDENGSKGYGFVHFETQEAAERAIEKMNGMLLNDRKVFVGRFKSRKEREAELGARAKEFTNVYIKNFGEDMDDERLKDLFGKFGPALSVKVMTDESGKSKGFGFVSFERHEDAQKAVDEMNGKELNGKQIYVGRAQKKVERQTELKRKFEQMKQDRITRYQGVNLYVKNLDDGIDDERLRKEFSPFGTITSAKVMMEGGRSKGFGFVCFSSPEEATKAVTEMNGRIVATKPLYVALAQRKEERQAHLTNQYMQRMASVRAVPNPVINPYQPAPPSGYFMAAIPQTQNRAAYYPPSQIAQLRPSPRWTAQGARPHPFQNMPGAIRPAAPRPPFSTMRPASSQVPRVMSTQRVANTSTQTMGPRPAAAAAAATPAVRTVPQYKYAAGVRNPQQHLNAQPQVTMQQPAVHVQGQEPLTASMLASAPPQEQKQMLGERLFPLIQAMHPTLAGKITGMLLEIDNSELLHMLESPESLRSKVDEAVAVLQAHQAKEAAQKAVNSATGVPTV
Env fusion inh: blocks HIV Env-driven cell-cell fusion. inhibition, % at 12.3 µM. AID 651610. 360,000 tested, 1.1% active. HeLa-JRFL Env/CEM21 cell fusion, luciferase;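 active = mean replicate inhibition score of at least 50 and every replicate individually at or above 50; inconclusive = only one of the two criteria met; inactive = mean below 50 and not all replicates reaching 50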;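 note: 0% = plate neutral controls and 100% = maraviroc near 300 nM; one replicate is shown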
CSC inhib: blocks cancer stem cells; cancer stem cell-like cells viability, luminescence; inhibition, % at 7.5 µM; 300,000 tested, 1.1% active; AID 2717;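 active = mean at 75% or more and at least half the replicates too; inconclusive = mean and replicates disagree; tested in HMLE shEcad cells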;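 note: 0% = median of negative and 100% = median of positive control wells; the first replicate is given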
Rce1 inh: yeast Ras-converting enzyme inhibition | Q03530 | yeast membranes, quenched prenylated peptide cleavage fluorescence | calls only | 290,000 tested, 0.27% active;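 active = fall in fluorescence gain of 50% or more versus controls, with final raw signal at or below 3038400; inconclusive = same 50% fall but final raw signal above 3038400; inactive = fall in fluorescence gain under 50%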;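 note: plate controls were neutral control wells for no effect and wells lacking membranes for full effect; tested at 10 µM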
Yeast UUG start: alters start codon recognition fidelity in yeast; 350,000 tested, 0.13% active; S. cerevisiae UUG-firefly luciferase reporter, luminescence/redox ratio; activity score, % at 18.7 µM; AID 602363;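 active = replicate mean at a twofold rise or more, about +100% in these data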;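 note: firefly luciferase made from a UUG start codon reports start codon fidelity; reporter light over untreated wells divided by growth signal over untreated wells; some hits fall short of that in this replicate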
MT1-MMP act inh: blocks activation of human MT1-MMP; HT1080 RFP-PRO-GFP cells, GFP/RFP ratio fluorescence, overnight; percent of plate control window, DMSO zero; GFP/RFP ratio change, % at 20 µM; 360,000 tested, 0.061% active; AID 651647;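 active = GFP/RFP ratio change of at least 30% with cell ATP level not reduced by more than half and red fluorescence within 50% of control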; note: strong numbers were not always called active
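Material: RFP-PRO-GFP reporter HT1080 cells. Dosing: single-point 20 µM compound, 1% DMSO. Controls: DMSO and RFP-L50D-GFP cell wells. Timing: cells overnight before dosing, compound overnight, 37 °C, 5% CO2. Measure: GFP/RFP fluorescence ratio.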
MT1-MMP act inh RFP: further read-out of MT1-MMP act inh, marked with its call; RFP signal change, %; measured here: RFP expression control read;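 0 = vehicle wells; hits needed this value within 50% of zero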
Numbers without * were called inactive. The list is partial; the hit share may differ from the screen's.

What do the screens show for `C=CCN(c1ccccc1)S(=O)(=O)c1c(C)[nH]c(=O)[nH]c1=O`?
eIF4H FP inh: -12; PABP polyA inh: -14; Env fusion inh: -7; CSC inhib: 2; Rce1 inh: inactive; Yeast UUG start: -6; MT1-MMP act inh: -2; MT1-MMP act inh RFP: 0

Results for COc1ccc(CCNC(=O)c2ccc3nc4cc(Cl)ccc4c(=O)n3c2)cc1OC ?
eIF4H FP inh: 6; PABP polyA inh: 1; Env fusion inh: -7; CSC inhib: -8; Rce1 inh: inactive; Yeast UUG start: -9; MT1-MMP act inh: -1; MT1-MMP act inh RFP: -3

Results for CN=c1scc(-c2ccc([N+](=O)[O-])cc2)n1/N=C/c1ccco1 ?
eIF4H FP inh: 8; PABP polyA inh: -2; Env fusion inh: -45; CSC inhib: -6; Rce1 inh: inactive; Yeast UUG start: 9; MT1-MMP act inh: 4; MT1-MMP act inh RFP: -4

How did Clc1ccccn1 do in these assays?
CSC inhib: -14; Yeast UUG start: -13; MT1-MMP act inh: -7; MT1-MMP act inh RFP: 4

How did C=CCOC(=O)C1=C(C)Nc2nc3ccccc3n2C1c1ccncc1 (centres undefined) do in these assays?
eIF4H FP inh: 0; PABP polyA inh: 2; Env fusion inh: 28; CSC inhib: 6; Rce1 inh: inactive; MT1-MMP act inh: -23; MT1-MMP act inh RFP: -16

Results for CCCCC(=O)Nc1ccc(C(=O)Nc2nc(CC(=O)OCC)cs2)cc1 ?
eIF4H FP inh: -5; PABP polyA inh: 2; Env fusion inh: -9; CSC inhib: -7; Rce1 inh: inactive; Yeast UUG start: -2; MT1-MMP act inh: -3; MT1-MMP act inh RFP: 4

How did Cn1c(CNC2CCCCC2)c(C#N)c2ccccc21 do in these assays?
eIF4H FP inh: 0; PABP polyA inh: 9; Env fusion inh: -71; CSC inhib: 8; Rce1 inh: inactive; Yeast UUG start: -8; MT1-MMP act inh: 1; MT1-MMP act inh RFP: -5

Results for COC(=O)CCCNC(=O)c1ccc(S(=O)(=O)NCc2ccco2)cc1 ?
Env fusion inh: 1; CSC inhib: 3; Rce1 inh: inactive; MT1-MMP act inh: -1; MT1-MMP act inh RFP: -1

Results for COc1ccc(CCNC(=O)CN2CCC(n3nnc4cc(F)ccc43)CC2)cc1OC ?
eIF4H FP inh: -3; PABP polyA inh: -6; Yeast UUG start: -13; MT1-MMP act inh: 2; MT1-MMP act inh RFP: 1

Results for CN(C)C(=O)COC(=O)c1cccc(S(=O)(=O)N2CC3(C)CC2CC(C)(C)C3)c1 (centres undefined) ?
CSC inhib: -1; Yeast UUG start: -4; MT1-MMP act inh: 3; MT1-MMP act inh RFP: 3

How did COc1ccc(/C=N/NC(=O)c2cccc(NC(=O)c3ccccc3Cl)c2)cc1 do in these assays?
eIF4H FP inh: -5; PABP polyA inh: 6; Env fusion inh: 12; CSC inhib: 0; Yeast UUG start: -3; MT1-MMP act inh: -6; MT1-MMP act inh RFP: -11

Results for Cc1c(C(=O)Nc2cccc(S(=O)(=O)N3CCCC3)c2)oc2ccccc12 ?
eIF4H FP inh: -12; PABP polyA inh: 5; Env fusion inh: -7; CSC inhib: -10; Rce1 inh: inactive; Yeast UUG start: -3; MT1-MMP act inh: 1; MT1-MMP act inh RFP: -4

What do the screens show for `COc1ccc(/C=C2/C(=O)N(c3ccccc3)N=C2C)c(OC)c1`?
eIF4H FP inh: -3; PABP polyA inh: -3; Env fusion inh: -15; CSC inhib: -12; Rce1 inh: inactive; Yeast UUG start: 2; MT1-MMP act inh: 3; MT1-MMP act inh RFP: 4

What do the screens show for `O=C(CN1C(=O)CCSc2ccccc21)Nc1cccc(F)c1`?
eIF4H FP inh: -4; PABP polyA inh: -6; Env fusion inh: -26; CSC inhib: -14; Rce1 inh: inactive; Yeast UUG start: -8; MT1-MMP act inh: 5; MT1-MMP act inh RFP: 3

Results for Cc1ccc(C(=O)NCC(=O)OCC(=O)N2CC(C)OC(C)C2)cc1 (centres undefined) ?
Env fusion inh: -39; CSC inhib: 18; Rce1 inh: inactive; Yeast UUG start: -18; MT1-MMP act inh: 1; MT1-MMP act inh RFP: 4

What do the screens show for `COc1ccc2[nH]c(CN3CCC(n4nccc4NC(=O)C4CC4)CC3)c(C)c2c1`?
eIF4H FP inh: -5; PABP polyA inh: 5; Rce1 inh: inactive; Yeast UUG start: -24; MT1-MMP act inh: 1; MT1-MMP act inh RFP: 3

How did N#Cc1ccc(NC(=O)c2nc(-c3ccccc3)n(-c3ccccc3)n2)cc1 do in these assays?
eIF4H FP inh: -2; PABP polyA inh: -2; CSC inhib: -3; Rce1 inh: inactive; MT1-MMP act inh: 1; MT1-MMP act inh RFP: -8

How did Cc1sc2ncnc(N(C)CCc3ccccn3)c2c1C do in these assays?
eIF4H FP inh: 3; PABP polyA inh: 10; Env fusion inh: 17; CSC inhib: -6; Rce1 inh: inactive; Yeast UUG start: -4; MT1-MMP act inh: 4; MT1-MMP act inh RFP: -2

Results for COc1ccc(-c2nnc3n2N=C(C)CS3)cc1OC ?
eIF4H FP inh: -4; PABP polyA inh: 1; Env fusion inh: 8; CSC inhib: 3; Rce1 inh: inactive; Yeast UUG start: -21; MT1-MMP act inh: -5; MT1-MMP act inh RFP: -2

What do the screens show for `CCCCNc1c(-c2ccc(Sc3ccc(OC)cc3)cc2)nc2cc(C)ccn12`?
Env fusion inh: inconclusive; CSC inhib: 61; Yeast UUG start: -19; MT1-MMP act inh: 18; MT1-MMP act inh RFP: -25

How did CCOc1ccc(NC(=O)Cn2nnc(C(=O)NCc3ccc(OC)cc3)c2N)cc1 do in these assays?
eIF4H FP inh: -16; PABP polyA inh: 2; Env fusion inh: 0; CSC inhib: -5; Rce1 inh: inactive; Yeast UUG start: -2; MT1-MMP act inh: 2; MT1-MMP act inh RFP: -1

Results for Cc1ccc(C(=O)CCC(=O)N2CCN(C(=O)c3ccco3)CC2)cc1 ?
eIF4H FP inh: -1; PABP polyA inh: 8; Env fusion inh: -5; CSC inhib: 13; Rce1 inh: inactive; MT1-MMP act inh: 0; MT1-MMP act inh RFP: -2

Results for CCCc1nnc(SCc2ccc(C(=O)OC)o2)n1N ?
eIF4H FP inh: -1; PABP polyA inh: 0; CSC inhib: 0; Rce1 inh: inactive; Yeast UUG start: -4; MT1-MMP act inh: -1; MT1-MMP act inh RFP: 2

How did O=c1c2ccccc2sn1-c1ccc(S(=O)(=O)N2CCCC2)cc1 do in these assays?
eIF4H FP inh: 4; PABP polyA inh: 5; CSC inhib: 5; Rce1 inh: inactive; Yeast UUG start: -3; MT1-MMP act inh: 9; MT1-MMP act inh RFP: -4

What do the screens show for `CCc1nnc(NC(=O)NC(C)(C)C)s1`?
eIF4H FP inh: -2; PABP polyA inh: -10; CSC inhib: -20; Rce1 inh: inactive; Yeast UUG start: -6; MT1-MMP act inh: -1; MT1-MMP act inh RFP: 1

Results for CCOC(=O)N1CCN(S(=O)(=O)c2ccc(C(=O)N(CCN(CC)CC)c3nc4c(C)cccc4s3)cc2)CC1 ?
eIF4H FP inh: -7; PABP polyA inh: 13; Env fusion inh: 23; CSC inhib: -7; Rce1 inh: inactive; Yeast UUG start: 14; MT1-MMP act inh: -1; MT1-MMP act inh RFP: 4

How did Cc1onc(-c2ccccc2)c1C(=O)NN1CCOCC1 do in these assays?
CSC inhib: 3; Yeast UUG start: -21; MT1-MMP act inh: -3; MT1-MMP act inh RFP: 2

How did O=C(NCCc1ccccn1)c1c(-c2ccsc2)sc2ccccc12 do in these assays?
Env fusion inh: 3; Yeast UUG start: -7; MT1-MMP act inh: -1; MT1-MMP act inh RFP: -1

Results for CCn1cc(S(=O)(=O)NCc2ccc(OC)cc2)cn1 ?
eIF4H FP inh: -7; PABP polyA inh: -1; Env fusion inh: 13; CSC inhib: -17; Rce1 inh: inactive; Yeast UUG start: -10; MT1-MMP act inh: -2; MT1-MMP act inh RFP: 2

What do the screens show for `CC(OC(=O)CC1CCCC1)C(=O)Nc1ccc(S(N)(=O)=O)cc1` (centres undefined)?
CSC inhib: 1; Rce1 inh: inactive; MT1-MMP act inh: 7; MT1-MMP act inh RFP: 0

Results for S=C(Cc1ccccc1)NCCc1ccccc1 ?
Env fusion inh: 10; CSC inhib: 13; Rce1 inh: inactive; Yeast UUG start: -6; MT1-MMP act inh: 3; MT1-MMP act inh RFP: 1

Results for COc1ccc(C(=O)OCC(=O)c2ccc(C)c(S(=O)(=O)N3CCOCC3)c2)cc1OC ?
eIF4H FP inh: -2; PABP polyA inh: 0; Env fusion inh: 31; CSC inhib: -9; Rce1 inh: inactive; Yeast UUG start: -5; MT1-MMP act inh: 6; MT1-MMP act inh RFP: -27

What do the screens show for `CC1=C(C(=O)Nc2ccccc2C)C(c2ccc(C)o2)C2=C(CCCC2=O)N1` (centres undefined)?
eIF4H FP inh: -4; PABP polyA inh: -12; CSC inhib: -14; Rce1 inh: inactive; Yeast UUG start: -33; MT1-MMP act inh: 2; MT1-MMP act inh RFP: 1

Results for CC(=O)C12CC(C)=C(C)CC1CC1C3CCC4=CC(=O)CCC4(C)C3CCC12C (centres undefined) ?
Env fusion inh: -26; CSC inhib: 77*; Rce1 inh: inactive; Yeast UUG start: -8; MT1-MMP act inh: -6; MT1-MMP act inh RFP: -15

What do the screens show for `CCCNC(=O)C1(CC2CC(c3ccccc3)=NO2)CCN(C(=O)C2(C)CC2)CC1` (centres undefined)?
Env fusion inh: -14; CSC inhib: -2; Rce1 inh: inactive; Yeast UUG start: -15; MT1-MMP act inh: 1; MT1-MMP act inh RFP: 1

How did Cc1cccc(N2CCN(C(=O)c3ccc(CS(=O)Cc4ccc(Cl)cc4)o3)CC2)c1C (centres undefined) do in these assays?
eIF4H FP inh: 0; PABP polyA inh: 13; Env fusion inh: 6; CSC inhib: -32; Rce1 inh: inactive; Yeast UUG start: -4; MT1-MMP act inh: -1; MT1-MMP act inh RFP: -5

How did COc1cc2[nH]c(=O)n(CCC(=O)N3CCC(N4CCCCC4)CC3)c(=O)c2cc1OC do in these assays?
eIF4H FP inh: -9; PABP polyA inh: 1; Env fusion inh: -30; CSC inhib: -13; Rce1 inh: inactive; Yeast UUG start: -5; MT1-MMP act inh: -2; MT1-MMP act inh RFP: 15

What do the screens show for `CCOC(=O)CCC(NC(=O)c1cncc(O)c1)C(=O)OCC` (centres undefined)?
eIF4H FP inh: -8; PABP polyA inh: 14; Env fusion inh: -61; CSC inhib: -4; Rce1 inh: inactive; Yeast UUG start: -8; MT1-MMP act inh: 1; MT1-MMP act inh RFP: 3

How did Cc1noc(C)c1C(=O)Nc1cc(Cl)ccc1N1CCOCC1 do in these assays?
CSC inhib: -1; Yeast UUG start: -13; MT1-MMP act inh: 11; MT1-MMP act inh RFP: 1

What do the screens show for `NC(=O)C1(N2CCCCC2)CCN(C2CC(=O)N(CCc3ccccc3)C2=O)CC1` (centres undefined)?
eIF4H FP inh: 5; PABP polyA inh: 3; CSC inhib: 3; Rce1 inh: inactive; Yeast UUG start: -14; MT1-MMP act inh: 0; MT1-MMP act inh RFP: -1

How did CN1CCN(c2oc(-c3ccc([N+](=O)[O-])cc3)nc2C#N)CC1 do in these assays?
eIF4H FP inh: -5; PABP polyA inh: -8; Env fusion inh: -7; CSC inhib: -6; Rce1 inh: inactive; MT1-MMP act inh: -8; MT1-MMP act inh RFP: -3

Screens as filed in PubChem BioAssay.
